PKD1 inh: blocks activity of human protein kinase D1. Q15139. PKD1 kinase fluorescence polarization assay. inhibition, %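 (about 10 µM by stock and volumes)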. 200,000 compounds, 0.056% hits. AID 797;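 active means inhibition of 50% or more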;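 further: controls were vehicle for no effect and a reference inhibitor for full effect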
GALR2 ag: GALR2 (human) receptor agonism; 140,000 compounds, 0.48% hits; GALR2-expressing cells, agonist activation read-out; O43603; activation, %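 (tested at 5 µM)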;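 active means above mean plus 3 SD of all compounds, about 5% in these data, not always enough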;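 further: 0% = vehicle buffer wells and 100% = reference agonist at full effect; tested in CHO reporter cells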
Target sequence (O43603 whole entry, looked up): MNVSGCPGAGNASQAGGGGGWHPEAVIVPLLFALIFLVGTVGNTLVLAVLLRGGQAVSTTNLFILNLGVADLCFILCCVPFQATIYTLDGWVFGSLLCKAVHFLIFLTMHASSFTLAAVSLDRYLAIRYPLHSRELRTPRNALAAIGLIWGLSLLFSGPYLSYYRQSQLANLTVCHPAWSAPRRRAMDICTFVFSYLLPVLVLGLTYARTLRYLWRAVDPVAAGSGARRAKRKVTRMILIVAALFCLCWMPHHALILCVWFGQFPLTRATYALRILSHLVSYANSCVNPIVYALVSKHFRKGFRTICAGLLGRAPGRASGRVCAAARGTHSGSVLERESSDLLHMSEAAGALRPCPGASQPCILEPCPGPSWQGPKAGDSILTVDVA
INS promoter inh: TRM-6 insulin promoter activity inhibition; 130,000 compounds, 0.9% hits; TRM-6 cells (human fetal islet line), insulin promoter-eGFP reporter, imaging; reporter expression induced with tamoxifen; inhibition, % at 2 µM;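 active means inhibition above the mean plus 3 SD, with well images judged a real hit on visual review, cut at about 60% in these data, passing the limit was not always enough; inconclusive means inhibition over the cutoff but images rejected on review; inactive means inhibition not above the cutoff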
HSV replic up: increases HSV replication in cells; HSV replication augmentation in cells, fold increase; maximum fold increase; 220,000 compounds, 0.005% hits; AID 1956;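 active means peak rise of 1.5-fold or more in the series; inconclusive means self-fluorescent or not available for retest; tested in PC3 cells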;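 further: first round at 10 µM; read as green reporter fluorescence; hits show the peak of a series up to 25 µM; 1 = signal of infected wells without compound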
RGS16-Gao: modulates binding between human RGS16 and Galphao | O15492+P09471 | bead-based flow cytometry RGS16-Galphao binding, fluorescence; actives lie on both sides | binding response (% of control), % at 10 µM | 220,000 compounds, 0.38% hits | AID 1441;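 active means below 25% or above 175%, edge rows of some plates excepted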;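 further: Galphao activated by GDP with aluminum fluoride before binding; 100% = wells without compound and 0% = beads without RGS; some results beyond the cut were filed as inactive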
Target sequence (O15492 whole entry, looked up): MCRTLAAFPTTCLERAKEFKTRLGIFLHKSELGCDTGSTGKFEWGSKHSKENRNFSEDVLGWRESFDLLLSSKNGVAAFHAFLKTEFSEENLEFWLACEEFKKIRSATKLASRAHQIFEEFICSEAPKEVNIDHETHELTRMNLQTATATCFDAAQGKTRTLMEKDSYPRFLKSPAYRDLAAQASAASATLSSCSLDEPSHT
Target sequence (P09471 whole entry, looked up): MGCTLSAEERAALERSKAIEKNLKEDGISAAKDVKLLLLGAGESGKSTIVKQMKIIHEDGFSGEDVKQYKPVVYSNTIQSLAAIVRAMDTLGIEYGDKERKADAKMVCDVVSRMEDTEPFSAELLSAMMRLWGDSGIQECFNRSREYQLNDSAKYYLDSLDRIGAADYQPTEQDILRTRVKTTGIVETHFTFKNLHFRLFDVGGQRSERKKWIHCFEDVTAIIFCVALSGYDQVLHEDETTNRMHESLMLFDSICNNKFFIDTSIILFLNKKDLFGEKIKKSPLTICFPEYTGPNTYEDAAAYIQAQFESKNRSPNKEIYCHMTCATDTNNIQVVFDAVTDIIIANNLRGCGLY
INS promoter inh cell count: recorded beside INS promoter inh, whose call it bears; normalized cell count, %; measured here: cell count, toxicity; reference of the scale not given here;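 cells exposed to compound for 48 h; stained nuclei by imaging scaled within each plate; lower means fewer cells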
HSV replic up primary fold: second read-out of HSV replic up, no call of its own (marks repeat the call); fold increase; compound at 10 µM; measured here: primary screen fold increase 10 uM; tested in PC3 cells;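 GFP signal in the first replicate; 1 = infected wells without compound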
* hit, by the source's call; i = inactive; u = inconclusive; x = no result given.

SMILES	PKD1 inh	GALR2 ag	INS promoter inh	INS promoter inh cell count	HSV replic up	HSV replic up primary fold	RGS16-Gao
CCN=c1scc(C)n1/N=C/c1ccsc1	-7	-1.9	-18	58	i	0.93	110
O=C(NCc1ccccc1)C12CN(Cc3ccccc3)CC1C(c1ccc([N+](=O)[O-])cc1)=NO2 (stereo not given)	-3	0.6	-47	129	i	1.1	102
Cc1cc(C(=O)Nc2ccccc2N2CCOCC2)ccc1[N+](=O)[O-]	-4	0.8	x	x	i	1	100
COc1ccc(S(=O)(=O)NNC(=O)c2ccccc2-n2cccc2)cc1	-4	x	-77	82	i	0.91	103
CCc1ccc(S(=O)(=O)ON2C(=O)c3ccccc3C2=O)cc1	7	x	-24	26	i	1.1	93
NC(=O)CSCc1ccc(Br)cc1	-4	-2.2	-371	60	i	1.1	94
N/C(=N\c1nc2c(c(=O)[nH]1)CCC2)Nc1cccc2ccccc12	0	-0.4	-4	82	i	0.93	103
O=C(CSc1nnnn1-c1ccc2c(c1)CCC2)Nc1ccc2c(c1)OCCO2	-7	-2.8	x	x	i	0.85	99
Cc1sc2c(c1C)C(O)=C(C(=O)Nc1ccccc1)S(=O)(=O)N2C	x	x	x	x	i	1.2	102
CCC(=O)N(Cc1c(C)nn(-c2ccccc2)c1Cl)c1ccc(Cl)cc1	-6	0.0	x	x	i	0.91	64
CCn1c(=O)cc(SCC(=O)N2CCN(C3CCCCC3)CC2)c2ccccc21	-3	0.5	-9	80	i	1.2	97
N#Cc1ccc(-c2cccnc2)nc1SCC(=O)c1ccccc1	x	x	x	x	u	x	100
O=S(=O)(c1ccc(Br)cc1)N1CCN(c2cc(-c3ccccc3)nc3ncnn23)CC1	-11	-0.5	x	x	i	0.8	102
CCOc1ccc(-c2c(C(=O)N/N=C/c3ccc(OC(C)C)cc3)nnn2-c2nonc2N)cc1	-16	3.3	x	x	i	0.94	85
CNC(=S)N(CCc1c(C)[nH]c2ccc(C)cc12)Cc1ccco1	-9	-1.7	24	119	x	x	x
O=C(CCCO)NNc1c2ccccc2nc2ccccc12	x	x	x	x	i	0.9	100
Cc1ccc(C)c(OCC(=O)Nc2ccc(S(=O)(=O)Nc3ccccn3)cc2)c1	6	-0.8	15	44	i	0.91	71
COc1ccccc1OCC(=O)Nc1cc(Cl)ccc1Oc1ccccc1	-11	0.0	x	x	i	1.1	97
Cc1cccc(N2CC(C(=O)OCc3ccc([N+](=O)[O-])cc3)CC2=O)c1 (stereo not given)	2	x	x	x	i	0.99	96
CCOC(=O)C1CCCN(CC(=O)/C=C2/N(C)c3ccccc3C2(C)C)C1 (stereo not given)	6	-0.3	x	x	i	1	92
CCOC(=O)c1ccc(NC(=O)N2CCN(CCc3ccccc3)CC2)cc1	-10	-2.0	21	84	i	0.8	100
c1ccc(Nc2ncnc3c2oc2ccccc23)cc1	-1	-1.0	70	102	i	0.73	124
CC(C)CCOC(=O)/C(=C/c1ccco1)NC(=O)/C=C/c1ccccc1	-8	-3.7	42	168	i	0.89	99
COC(=O)c1c(O)c2c([nH]c1=O)CCCC2	-2	1.2	52	152	i	0.97	104
Cc1ccc(N=C2NC(=O)C(CC(=O)O)S2)cc1 (stereo not given)	0	-3.0	x	x	u	x	104
COc1ccc(C(=O)OC(C)C(=O)Nc2cc(C(F)(F)F)ccc2Cl)c(OC)c1OC (stereo not given)	1	0.0	x	x	i	1.3	97
Brc1ccccc1-c1nc(-c2ccccc2)no1	-2	0.8	15	140	i	0.81	96
COc1ccccc1OCC(=O)NCCC1=CCCCC1	6	-0.5	3	93	i	0.97	127
COc1ccc(CN2C(=O)NC3(CCCC3)C2=O)cc1F	-4	x	-35	156	i	0.98	104
O=C1CC(N2CCOCC2)C(=O)N1CCc1ccccc1 (stereo not given)	-4	-2.3	-6	90	i	0.93	102
CC(C)(Oc1ccc(Cl)cc1)C(=O)Nc1cccnc1	-13	-1.5	-8	108	i	1.3	98
Cc1cccc(OCc2nc(C#N)c(N3CC(C)CC(C)C3)o2)c1 (stereo not given)	-5	-2.3	x	x	i	0.78	95
CCOc1ccc(C2C3=C(Nc4nc(N)[nH]c(=O)c42)c2ccccc2C3=O)cc1 (stereo not given)	3	0.3	x	x	i	0.83	97
CCOc1cc2c(cc1OCC)C(c1ccccc1)N(c1ccc(C(=O)O)cc1)C(=O)C2 (stereo not given)	x	x	x	x	i	0.86	105
Cc1cc(-c2ccc(Cl)cc2)n2ncnc2n1	x	x	x	x	i	0.99	92
CCOc1ccc(-n2c(=O)[nH]c3sc4c(c3c2=O)CCCC4)cc1	-7	x	x	x	i	1	106
CCOc1cc(/C=N/Nc2nc(Nc3ccccc3)nc(N3CCCCC3)n2)ccc1OCC(=O)O	-13	x	58	86	i	0.88	102
O=C(NCC1CCCO1)c1ccccc1-c1nc(-c2ccccc2Cl)no1 (stereo not given)	x	x	x	x	i	1.1	109
O=C(NCCOc1ccccc1)c1cc(C(=O)NCCOc2ccccc2)cc([N+](=O)[O-])c1	-7	-0.8	17	119	i	1	112
COc1cc(C2c3c(oc4ccccc4c3=O)C(=O)N2Cc2cccnc2)cc(OC)c1OC (stereo not given)	-3	0.9	x	x	i	1.1	99
Cc1nc(CNS(=O)(=O)c2cccc(F)c2)cs1	-5	-2.2	0	141	i	0.96	x
Cc1cc(N2CCOCC2)c2c(N)c(C)cc(C)c2n1	6	-3.0	3	205	i	0.78	103
COc1ccc(/C=C2/CCc3ccccc3C2=O)cc1OC	-1	-1.5	25	116	i	0.84	96
Cc1cc(NC(=O)c2ccccc2F)ncc1NC(=O)c1cccs1	3	x	x	x	i	1.1	106
CCCc1nn(C)c(C(N)=O)c1[N+](=O)[O-]	-5	x	38	119	i	0.98	89
CN(C)NC(=S)Nc1ccc(S(=O)(=O)N2CCCCC2)cc1	x	x	x	x	i	1	99
COCCCNCCOCCOc1c(OC)cccc1OC	-6	0.0	-22	116	i	0.9	107
COc1ccc(-c2nnc(SCC(=O)NCc3cccs3)n2C)cc1	-10	-0.6	71	105	i	0.79	101
O=C(CSc1nc2c(c(=O)n1-c1ccc(Cl)cc1)SCC2)Nc1nccs1	2	-0.5	43	128	i	1	101
CNC(=S)N1N=C(c2ccc(C)cc2)CC1c1ccc(Br)cc1 (stereo not given)	4	-3.4	27	72	i	0.88	101
Cc1sc2nc(CN(C(=O)NC3CCCCC3)C3CCCCC3)[nH]c(=O)c2c1C	-4	-1.2	-363	35	i	0.86	101
CCOCCN(C=O)c1cccc(OC)c1	-9	-0.1	36	80	i	0.95	99
Cc1nn(-c2ccccc2)c(C)c1C(=O)OCC(=O)Nc1ccc2c(c1)OCO2	5	-2.7	x	x	i	1	110
COc1cc(/C=N/NC(=O)c2cn(-c3cccc(C)n3)cn2)ccc1O	-2	x	x	x	i	0.93	102
O=C(Cn1cncn1)N/N=C/c1ccccc1Cl	x	x	x	x	i	0.98	118
COc1cc2c(cc1OC)-c1nnc(C)n1C(C)(C)C2	5	-1.4	19	99	i	1	102
COc1cccc(CCC(=O)O)c1OC	-3	-1.0	89*	35*	i	0.76	134
CN1CCN(C(=S)c2cn(Cc3ccc(F)cc3)c3ccccc23)CC1	-4	x	-33	125	i	0.9	109
CCN(C(=O)COC(=O)c1cc(-c2ccccc2)nc2c1c(C)nn2-c1ccc(C)cc1)C1CCS(=O)(=O)C1 (stereo not given)	-3	-0.7	-10	147	i	0.95	103
N#C/C(=C/c1cn(CC(=O)O)c2ccccc12)c1ccc(F)cc1	-5	-0.5	3	100	i	0.89	99

Additional compounds.
SMILES	PKD1 inh	GALR2 ag	INS promoter inh	INS promoter inh cell count	HSV replic up	HSV replic up primary fold	RGS16-Gao
CC1Cc2ccccc2N1C(=O)CSc1nnc(Cn2nnc3ccccc32)n1C (stereo not given)	-13	-1.0	x	x	i	0.88	98
Cc1ccc(C(C)C)c(OCc2nnc(SCC(=O)Nc3ncc(C)s3)n2C)c1	6	-1.0	-20	123	i	1	100
CC1=C(C(N)=O)C(c2ccccn2)n2nc(SCc3ccccc3)nc2N1 (stereo not given)	-6	-2.1	14	160	i	0.88	99
O=c1c2c3c(sc2nc2n1CCCC2)CCCC3	-2	-1.0	68	161	i	0.92	92
CN(C)c1ccc(/C=N/NC(=O)Cn2nnc3ccccc32)cc1	-6	-1.2	-33	47	i	0.99	75
CCc1ccc(Oc2coc3cc(OC(=O)c4cc5ccccc5oc4=O)ccc3c2=O)cc1	-8	0.8	22	110	i	0.99	101
CC(=O)NC(CCS(C)(=O)=O)C(=O)Nc1ccc(F)cc1Cl (stereo not given)	-5	-2.3	-18	108	x	x	103
CCC(C)Nc1c([N+](=O)[O-])cc(C)cc1[N+](=O)[O-] (stereo not given)	20	-2.5	-75	129	x	x	110
O=C(CSc1nc2ccccc2s1)Nn1cnnc1	7	-2.4	x	x	i	0.93	107
Cc1[nH]n(-c2ccccc2)c(=O)c1C(c1cccc([N+](=O)[O-])c1O)c1c(C)[nH]n(-c2ccccc2)c1=O	0	-2.4	0	117	i	0.93	27
Cc1cc(C)cc(Oc2nc3c(C)cccn3c(=O)c2/C=C(\C#N)C(=O)NC2CCS(=O)(=O)C2)c1 (stereo not given)	-1	-1.1	0	42	i	1	111
CCOc1ccccc1C(=O)Nc1nncs1	-8	0.2	3	107	i	0.93	99

The last three records of the section above open the next one:
SMILES	PKD1 inh	GALR2 ag	INS promoter inh	INS promoter inh cell count	HSV replic up	HSV replic up primary fold	RGS16-Gao
Cc1[nH]n(-c2ccccc2)c(=O)c1C(c1cccc([N+](=O)[O-])c1O)c1c(C)[nH]n(-c2ccccc2)c1=O	0	-2.4	0	117	i	0.93	27
Cc1cc(C)cc(Oc2nc3c(C)cccn3c(=O)c2/C=C(\C#N)C(=O)NC2CCS(=O)(=O)C2)c1 (stereo not given)	-1	-1.1	0	42	i	1	111
CCOc1ccccc1C(=O)Nc1nncs1	-8	0.2	3	107	i	0.93	99
N/C(=N\OC(=O)CN1C(=O)c2ccccc2C1=O)c1ccc(Cl)cc1	6	x	x	x	i	1	103
CCOC(=O)C1CCN(c2c(C(=O)c3ccccc3)cnc3ccc(CC)cc23)CC1	-6	x	x	x	i	0.92	99
CN1CCN(C(=O)c2cc(C(C)(C)C)cc(C(C)(C)C)c2)CC1	-5	x	x	x	i	0.95	104
CC(=O)NC(CC(=O)Nc1ccc(S(=O)(=O)N2CCCCC2)cc1)c1ccccc1 (stereo not given)	1	-2.5	-22	32	i	1.1	99
Cc1cc(SCC(=O)NCCN2C(=O)CSC2=O)nc2c(C)cccc12	0	0.0	-26	122	i	0.92	109
CCc1ccc(CNC(=O)CCc2nnc(Cc3cccc(C(F)(F)F)c3)o2)nc1	-6	x	x	x	i	0.98	99
CC(C)c1ccc(C(=O)Nc2ccc(N3CCOCC3)cc2)cc1	-6	-2.0	-50	136	i	0.92	50
CCn1c(SCC(=O)NC(C)(C)C)nnc1-c1ccoc1C	-9	-1.6	7	95	i	0.95	x
O=C(COc1cccc2cccnc12)N/N=C/c1ccc(O)cc1	4	x	x	x	i	0.91	102
COc1cc(/C=C2/C(=N)N3OC(C)=CC3=NC2=O)ccc1OCCOc1ccc(C)cc1	0	-0.6	18	86	i	1.1	102
c1ccc(C2=Nc3cccc4cccc(c34)N2)cc1	7	0.2	x	x	i	0.89	98
Cc1ccc2nc(NC(=O)c3ccc(Cl)s3)sc2c1	3	0.0	x	x	i	0.91	89
C=CCc1ccc(O)c(-c2ccc(O)c(CC=C)c2)c1	12	x	x	x	i	0.89	99
CC(=O)N1CCc2cc(S(=O)(=O)CCC(=O)NCc3ccco3)ccc21	-2	x	-45	179	i	0.99	109
COc1ccccc1Cc1nc2ccccc2n1S(=O)(=O)c1ccc(Cl)cc1	1	-1.0	x	x	i	0.91	92
O=C(O)CCCCCNCc1ccncc1	-7	-0.2	x	x	i	0.91	108
CCC1C(C#N)=C(SCC(N)=O)NC2=C1C(=O)CC(C)(C)C2 (stereo not given)	x	x	x	x	i	1	95
COc1ccc(-c2nn(-c3ccccc3)cc2/C=C/C(=O)N2CCN(c3ccccn3)CC2)cc1	1	x	33	80	i	0.89	103

Some of the entries so far, as labelled records.
O=C(NCCOc1ccccc1)c1cc(C(=O)NCCOc2ccccc2)cc([N+](=O)[O-])c1
  PKD1 inh = -7; GALR2 ag = -0.8; INS promoter inh = 17; INS promoter inh cell count = 119; HSV replic up = i; HSV replic up primary fold = 1; RGS16-Gao = 112

COc1cc(C2c3c(oc4ccccc4c3=O)C(=O)N2Cc2cccnc2)cc(OC)c1OC (stereo not given)
  PKD1 inh = -3; GALR2 ag = 0.9; INS promoter inh = x; INS promoter inh cell count = x; HSV replic up = i; HSV replic up primary fold = 1.1; RGS16-Gao = 99
